# Mtb hypoxia inh – reduces hypoxia-regulated biosensor signal in M. tuberculosis. AID 1159583. M. tuberculosis hypoxia-regulated fluorescent reporter, fluorescence. fluorescence inhibition, % (concentration not given with the values). hit rate 0.1% among 300,000;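 active = 35 to 45% if threefold the growth effect, above 45% if 1.5-fold the growth effect; inactive = the rest, general growth blockers included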;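 note: wells of about 50 µL received 100 nL stock; 0% = vehicle wells and 100% = reference inhibitor wells; whole bacteria with a GFP reporter of the hypoxia response; strong numbers were not always called active; many hits fall short of the cut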
# Sa ugtP lethal – kills S. aureus RN4220 lacking UgtP; S. aureus RN4220 ugtP deletion, OD600 growth, 16 h; some inactives read as strong as hits; growth inhibition, % (concentration not given with the values); hit rate 0.54% among 330,000; AID 1259309;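 active = z-score under -3 and OD600 up to 0.15 on both plates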;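 note: plate controls were untreated wells for no effect and antibiotic for full effect; wells of about 80 µL received 100 nL stock; the first replicate is given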
# Sa RN4220 lethal – kills Staphylococcus aureus RN4220. S. aureus RN4220 growth, OD600, 16 h. inhibition, % (test concentration not listed). hit rate 0.33% among 330,000. AID 1259311;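 active = z-score of -3 or lower and OD600 up to 0.18 on both plates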;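 note: plate controls were untreated cells for no effect and reference antibiotic for full effect; stock transfer was 100 nL into about 80 µL; one replicate is shown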
# BJeLR viability – BJeLR cell viability loss. inhibition, % (concentration not given with the values). hit rate 0.17% among 300,000. BJeLR (HRASV12) viability, CellTiter-Glo ATP luminescence, 48 h; reference of the scale not given here;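 active = replicate mean above 50%; inconclusive = above 50% but judged a plate artefact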;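 note: 50 nL library stock added to about 25 µL; numbers are from one replicate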
# PrP 5UTR inh – suppresses PrP 5' UTR mRNA reporter expression; AID 488862; cell-based PrP 5' UTR mRNA reporter, plate reader; inhibition, % (no concentration beside the values); hit rate 0.35% among 340,000;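 active = every replicate at 50% or more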;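 note: 0 = median of the neutral control wells; tested in H4 reporter cells; numbers are from one replicate; inactives centre near -14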
# Bead autofluor – compound fluorescence in toxin protease inhibitor counterscreen. compound autofluorescence counterscreen, microsphere flow cytometry; stronger effect = higher value. AID 624483. hit rate 3.1% among 360,000. fluorescence intensity (concentration not given with the values);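 active = at least 3 SD above the mean of all compounds, about 16000 in these data; inconclusive = too few beads counted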;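 note: 100 nL of 1 mM stock went into each well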
# Mtb hypoxia inh growth – further read-out of Mtb hypoxia inh, marked with its call; growth inhibition, %; measured here: M. tuberculosis growth (absorbance);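 0% = vehicle and 100% = reference antibiotic; read after six days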
# * hit, by the source's call; ? = inconclusive; / = no result given. No enrichment for hits, and some 4% of all compounds hit somewhere here.
# The first 2 compounds as a preview:
SMILES,Mtb hypoxia inh,Mtb hypoxia inh growth,Sa ugtP lethal,Sa RN4220 lethal,BJeLR viability,PrP 5UTR inh,Bead autofluor
COc1ccc(OC)c(CNCc2ccc3c(c2)OCO3)c1,-4,-7,1,3.7,-9,-1,3167
CC(N=c1ccccn1C(=O)Nc1ccc(F)cc1)c1ccco1 (configuration not stated),5,4,6,1.5,-3,-29,6800

# The listing, repeating the preview:
SMILES,Mtb hypoxia inh,Mtb hypoxia inh growth,Sa ugtP lethal,Sa RN4220 lethal,BJeLR viability,PrP 5UTR inh,Bead autofluor
COc1ccc(OC)c(CNCc2ccc3c(c2)OCO3)c1,-4,-7,1,3.7,-9,-1,3167
CC(N=c1ccccn1C(=O)Nc1ccc(F)cc1)c1ccco1 (configuration not stated),5,4,6,1.5,-3,-29,6800
CCOc1ccc(OCC)c(NC(=O)C2CCCN(S(=O)(=O)c3cccs3)C2)c1 (configuration not stated),/,/,1,-1.1,/,-10,5143
CC(=O)NC1=NN(C(C)=O)C2(CCCCC2)S1,-1,-3,5,4.5,3,-9,7750
CCOc1ccccc1NC(=O)NCCCCc1ccccc1,6,-5,-2,1.1,-1,-13,6168
Cc1cc(C)c(C)c(S(=O)(=O)N2C(=S)NC(=O)C2CC(C)C)c1C (configuration not stated),/,/,-7,0.6,2,-20,4454
CC1CC(=O)Nc2ccccc2N1C(=O)CSc1ccc2ccccc2n1 (configuration not stated),4,10,2,1.1,/,-25,2915
Cc1ccc(NC(=O)/C=C/c2ccc3c(c2)OCO3)cc1S(=O)(=O)N1CCOCC1,-2,-4,-26,-7.7,-2,-1,9607
Brc1ccccc1-c1nnc(-c2cccnc2)o1,22,12,-2,5.3,5,-63,10111
CCN(CC)C(=O)C(=O)NN=Cc1ccc(F)cc1,-2,2,9,1.2,/,/,/
CC(=O)N(CCCc1ccc(C(C)(C)C)cc1)CCCN(C)C,16,8,5,-0.2,-1,-35,7119
CCOc1ccc2c(c1)C(C)=CC(C)(C)N2S(=O)(=O)c1ccc(C)cc1,0,5,23,13,27,66*,2510
Cn1cc(-c2ccccc2C(N)=O)c(=O)c2cc(Cl)ccc21,6,12,1,4.5,-2,-5,4378
COc1ccc(/C(C)=N/NC(=O)c2ccc(CSc3nncn3C)cc2)cc1,/,/,/,/,-15,-15,2597
C/C(=N\OCc1ccccc1C#N)c1cc2ccccc2o1,/,/,/,/,-16,-20,5040
CC(C)NC(=O)Nc1ccc2c(c1)CC(=O)N([C@@H](C)CO)C[C@H](C)[C@@H](CN(C)C(=O)NC1CCCCC1)O2,5,5,11,4.2,/,-23,3786
COc1ccc(OC)c(-c2cc(C(=O)Nc3c(C)nn(Cc4ccc(Cl)cc4)c3C)no2)c1,5,6,-20,-4.8,2,-27,8421
Cn1c(CCNC(=O)c2ccco2)nc2cc(NS(=O)(=O)c3ccc(Cl)cc3)ccc21,-2,7,7,1.4,1,-26,21550*
COc1ccc(C)cc1-n1cnnn1,7,1,0,1.7,-3,-8,5899
O=C(NN=C1CCCc2ccccc21)C(c1ccccc1)c1ccccc1,5,6,-13,0.0,/,/,/
COc1ccc(Cl)cc1NC(=S)N(Cc1cccnc1)Cc1ccco1,1,3,4,-0.1,1,-17,4736
CN1CCC(=O)N([C@H](CSc2ccccc2)Cc2ccccc2)CC1,/,/,/,/,5,-12,3615
CN(C)c1nc(N)nc(Nc2ccccc2C#N)n1,/,/,0,3.6,5,-9,4208
Cc1c(N=C2SCC(=O)N2/N=C/c2ccccc2Cl)c(=O)n(-c2ccccc2)n1C,/,/,/,/,-8,-2,2541
Cc1ccc(S(=O)(=O)N2CCCC(C(=O)NC3CCCC3)C2)cc1Cl (configuration not stated),6,-4,3,4.6,0,-11,3285
Cc1ccc(S(=O)(=O)N2C[C@@H]3[C@H]4CC[C@H](C4)[C@@H]3[C@@H](C)[C@@H]2c2cccn2Cc2ccccc2)cc1,-6,-4,3,5.0,/,8,3054
COc1ccc(C2(C)ON(c3ccccc3C(F)(F)F)C2=O)cc1 (configuration not stated),14,14,-6,13,/,-1,3518
COC(=O)Cc1ccc(NC(=S)NCc2ccccc2)cc1,2,14,1,4.0,8,-9,7025
CCN(CC)S(=O)(=O)c1ccc(N(C)C)c(NC(=O)CSCc2c(C)noc2C)c1,5,-7,7,6.8,2,-4,4329
COc1nc(-c2ccccc2)ccc1-c1noc(-c2ccccc2)n1,/,/,/,/,8,-41,3000
Cc1ccccc1Cn1ccc(NC(=O)c2cnn3c(C(F)(F)F)cc(-c4ccco4)nc23)n1,7,1,-3,4.5,13,-8,10415
CCOC(=O)c1sc(N)c(C#N)c1COC(=O)CNC(=O)c1ccccc1,6,9,2,-0.8,0,0,11103
CCC1=C(OC(=O)N(CC)CC)N2C(=O)OC(=NCC3CC3)[C@]2(Cc2ccccc2)[C@H]2C1=CC[C@H]1C(=O)N(c3ccccc3)C(=O)[C@H]12,/,/,/,/,1,-18,4084
Cc1cc(C)cc(NC(=O)NCC(O)COc2ccc([N+](=O)[O-])cc2)c1 (configuration not stated),9,3,-3,5.7,-1,-31,6281
Cc1nc(SCC(=O)NC(=O)NC2CCCCC2)nc(C)c1C,0,4,8,4.4,0,-18,4225
CCOC(=O)N/N=C(/C)c1ccc([N+](=O)[O-])o1,/,/,/,/,-1,-26,11205
O=C(Cn1cc(C(F)(F)F)cc(Cl)c1=O)NCc1ccccc1,13,-2,0,2.4,-15,-57,5832
Cc1ccc2occ(C=NNC(=O)c3ccccc3O)c(=O)c2c1,10,6,0,6.2,/,/,/
CC(=O)NC(c1ccc(Cl)cc1)c1c(O)ccc2ccc(O)cc12 (configuration not stated),-1,-9,-11,-7.5,2,-9,3572
C(=C\c1ccncc1)/c1ccncc1,-4,-6,-10,2.3,2,-17,4239
C=CCn1c(SCC(=O)Nc2ccc3c(c2)OCO3)nc2ccccc2c1=O,5,5,-9,5.2,2,-31,7829
Cc1cc(C)c2sc(NC(=O)c3ccc(N4C(=O)CCC4=O)cc3)nc2c1,/,/,/,/,-17,-13,3981
O=C(NCC1CC1)c1cccc2c1C(=O)c1ccc(-c3ccc(OC(F)(F)F)cc3)cc1S2(=O)=O,0,0,8,6.6,/,-21,3227
CCOC(=O)C1=C(C)N(CC(C)C)C(=O)/C1=C\c1ccc(OCC(=O)Nc2ccccc2)cc1,11,10,20,-5.8,3,-26,9125
CC(=O)N1[C@H](Cc2ccccc2)C=C[C@]1(C)C(=O)NCCN1CCOCC1,/,/,/,/,-3,-2,3005
Cn1c(SCC(=O)OC2CCCCC2)nnc1-c1ccco1,/,/,0,1.2,2,-25,2870
CC(=O)c1cccc(NC(=O)c2cc(-c3cccs3)on2)c1,-18,-6,3,0.4,-1,4,3725
CC1CN(C(=S)Nc2ccc(Br)cc2Cl)CC(C)O1 (configuration not stated),-5,-1,1,-3.8,0,-2,4570
Cc1sc2ncnc(N)c2c1C,-7,-4,2,2.4,-12,-14,4734
CN1CCCCc2c1nc1c(c2N)CCCC1,0,-5,7,3.1,-7,-6,15777
CCOc1ccc(NC(=O)CN2CCN(CC(=O)Nc3cc(OC)cc(OC)c3)CC2)cc1,/,/,-4,-2.7,/,-9,5623
CCOc1ccccc1NC(=O)C1CCCN(C(=O)NCc2ccccc2)C1 (configuration not stated),-4,1,5,3.5,2,-24,?
CCN(CC)S(=O)(=O)c1ccc(OC)c(NS(=O)(=O)Cc2ccccc2)c1,18,8,9,4.3,-1,-17,4003
CC1CCN(c2nc3c(c(=O)[nH]c(=O)n3C)n2CCCc2ccccc2)CC1,2,3,-6,2.0,-6,-17,6528
O=C(Nc1ccc(CN2CCOCC2)cc1)c1ccc(Cl)cc1Cl,-1,-4,0,-1.0,8,-16,3310
CCc1nc(Nc2ccc(N3CCN(C(C)=O)CC3)cc2)c2oc3ccccc3c2n1,12,10,4,4.1,5,-14,2445
Cc1noc(COc2ccccc2OCC(O)CNC(C)(C)C)n1 (configuration not stated),/,/,3,-2.4,1,-20,2495
O=c1c(Cc2ccc(Cl)cc2)c(O)ccn1Cc1ccccc1,/,/,3,-2.6,3,-23,2193
CC(=O)OCC(=O)[C@@]1(O)CC[C@H]2[C@@H]3C[C@H](C)C4=CC(=O)C=C[C@]4(C)[C@H]3[C@@H](O)C[C@@]21C,/,/,/,/,-7,-13,5289
CN(CCOc1ccccc1)C(=O)c1cc(COc2c(F)cccc2F)on1,6,6,4,1.5,8,-21,4855
# The list goes on.
SMILES,Mtb hypoxia inh,Mtb hypoxia inh growth,Sa ugtP lethal,Sa RN4220 lethal,BJeLR viability,PrP 5UTR inh,Bead autofluor
c1ccc2c(c1)CCCC2NC1=NCCC1 (configuration not stated),-5,0,-5,-0.6,-5,-12,7033
CN(CC(O)COc1ccc2ccccc2c1)C1CCCCC1 (configuration not stated),10,11,8,-1.2,3,-11,3821
Cc1cccc(N(CC(=O)NCCSCc2ccccc2)S(C)(=O)=O)c1C,-1,-4,7,0.4,0,-5,3033
COc1ccc(C(=O)Nc2cc(C)on2)cc1OC,1,4,6,5.3,-8,-18,4794
Cc1ccc(C=NNC(=O)Cc2ccc(Cl)cc2)c(O)c1,11,6,9,3.7,/,/,/
O=C(NC1CCN(Cc2nnnn2CCc2ccccc2)CC1)c1ccccc1F,1,19,4,7.2,-5,1,22189*
CN(Cc1nc2ccccc2n1C)C(=O)c1cccs1,11,11,-1,4.9,3,-28,22484*
Cc1ccc(C=NNC(=O)c2c[nH]c3ccccc23)s1,15,17,-3,2.3,/,/,/
CC12CN3CC(C)(CN(C1)C3c1ccc(Br)cc1)C2 (configuration not stated),0,16,3,5.3,-2,-17,22475*
c1ccc(COn2c(-c3ccccc3)nc3c2CCc2nonc2-3)cc1,/,/,-11,0.1,-7,-13,3721
CC(=O)Oc1ccc(N2C(=O)C3C4C=CC(O4)C3C2=O)cc1 (configuration not stated),7,12,5,4.6,-2,-17,10261
CS(=O)(=O)N(CC(=O)NC1CCCCCC1)Cc1ccc(Cl)cc1,-3,7,-2,5.2,3,10,10601
COCCn1c(N)c(C(=O)NCc2cccs2)c2nc3ccccc3nc21,8,13,-5,-0.5,-9,-8,20185*
Cc1ccc(NC(=O)CSc2nnc(-c3ccncc3)s2)cc1,10,-2,8,0.1,-3,-21,5675
CC(=O)c1c(C)[nH]c(C(=O)OC(C)C(=O)Nc2ccc(C)c(S(=O)(=O)N3CCOCC3)c2)c1C (configuration not stated),0,-4,-1,3.9,/,-22,4127
CN(C)CCCCOc1cccc(Br)c1,/,/,/,/,-13,-4,2513
O=S(=O)(NCCc1cn2ccccc2n1)c1ccc(F)c(C(F)(F)F)c1,3,-2,6,6.3,1,-4,6410
Cc1ccc(C(=O)OCc2nnc(-c3ccccc3)o2)o1,-10,-5,-2,-2.6,-3,-5,6764
CCCCN(CCCC)CCCNC(=O)c1ccc2nc(-c3ccccc3NC(C)=O)c(=O)[nH]c2c1,0,-2,11,7.0,3,-2,4887
N#Cc1ccccc1OCC(=O)OCC(=O)NC1CCCCCC1,9,7,7,2.8,/,-11,4045
CCN(CC)Cc1c(O)ccc2c(-c3ccccc3)cc(=O)oc12,8,14,-1,-0.4,-4,2,4198
Cc1ccc2[nH]c3c(=O)n(N)c(=O)[nH]c3c2c1,5,-1,-9,4.6,-2,/,6159
Cc1nc(-c2ccc(Cl)cc2)sc1C1(C)CC(c2c(Cl)cccc2Cl)=NO1 (configuration not stated),/,/,/,/,4,4,3563
CC(C)CCNC(=O)c1cccc(S(=O)(=O)N2CCc3ccccc32)c1,19,5,-1,0.7,3,5,/
COc1ccc(C(=O)NCCN2CCOCC2)c(OC)c1OC,9,4,4,5.6,-7,-12,3176
CCNc1nc(NCC)nc(OCCNS(=O)(=O)c2ccccc2)n1,14,-3,5,3.0,14,0,4316
CN1CCN(S(=O)(=O)c2cccc(C(=O)Oc3ccccc3Cl)c2)CC1,2,3,4,3.7,-2,-14,5111
CCCn1ncc(CN2CCC(Oc3ccc(C(=O)N4CCCC4)cc3)CC2)c1C,9,3,10,2.4,12,-17,6377
Cc1cccnc1NC(=O)c1ccc(Cl)c(S(=O)(=O)N2CCCCC2)c1,-10,1,5,1.9,4,-12,4885
COc1cc(OC)cc(-c2nnc(SCC(=O)N(C(C)C)C(C)C)o2)c1,6,11,3,2.5,1,-14,11463

# From PubChem
